HSV replic up = increases HSV replication in cells | HSV replication augmentation in cells, fold increase | maximum fold increase | 0.005% of 220,000 active;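 active = peak rise of 1.5-fold or more in the series; tested in PC3 cells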;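 note: first round at 10 µM; read as green reporter fluorescence; hits show the peak of a series up to 25 µM; 1 = signal of infected wells without compound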
Insulin prom inh = TRM-6 insulin promoter activity inhibition; 0.9% of 130,000 active; inhibition, % at 2 µM; TRM-6 cells (human fetal islet line), insulin promoter-eGFP reporter, imaging; reporter expression induced with tamoxifen; AID 1273;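 active = inhibition above the mean plus 3 SD, with well images judged a real hit on visual review, cut at about 60% in these data, passing the limit was not always enough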
PKD1 inh = blocks activity of human protein kinase D1. AID 797. Q15139. inhibition, %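 (about 10 µM by stock and volumes)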. 0.056% of 200,000 active. PKD1 kinase fluorescence polarization assay;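 active = inhibition of 50% or more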;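 note: controls were vehicle for no effect and a reference inhibitor for full effect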
RGS16-Gao = RGS16-Galphao interaction regulator (human) | O15492+P09471 | 0.38% of 220,000 active | bead-based flow cytometry RGS16-Galphao binding, fluorescence; actives lie on both sides | binding response (% of control), % at 10 µM;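 active = below 25% or above 175%, edge rows of some plates excepted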;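 note: Galphao activated by GDP with aluminum fluoride before binding; 100% = wells without compound and 0% = beads without RGS; some results beyond the cut were filed as inactive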
Target sequence (O15492 whole entry, looked up): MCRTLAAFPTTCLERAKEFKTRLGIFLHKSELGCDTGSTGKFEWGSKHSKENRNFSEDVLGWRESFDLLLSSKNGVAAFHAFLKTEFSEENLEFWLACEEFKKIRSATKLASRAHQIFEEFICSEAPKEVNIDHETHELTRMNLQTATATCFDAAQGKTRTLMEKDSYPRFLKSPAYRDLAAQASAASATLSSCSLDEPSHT
Target sequence (P09471 whole entry, looked up): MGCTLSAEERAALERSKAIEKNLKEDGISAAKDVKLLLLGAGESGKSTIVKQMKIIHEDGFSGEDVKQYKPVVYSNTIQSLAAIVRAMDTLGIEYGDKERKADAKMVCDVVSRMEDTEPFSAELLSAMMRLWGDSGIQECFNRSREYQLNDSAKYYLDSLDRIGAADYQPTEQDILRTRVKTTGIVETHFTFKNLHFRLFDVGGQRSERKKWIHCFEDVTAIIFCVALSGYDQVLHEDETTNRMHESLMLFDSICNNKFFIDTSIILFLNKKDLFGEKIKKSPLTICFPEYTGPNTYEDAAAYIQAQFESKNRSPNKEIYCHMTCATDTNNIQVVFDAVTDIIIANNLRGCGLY
GALR2 agonist = activates the human galanin receptor 2 | activation, %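 (tested at 5 µM)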 | O43603 | GALR2-expressing cells, agonist activation read-out | AID 803 | 0.48% of 140,000 active;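 active = above mean plus 3 SD of all compounds, about 5% in these data, not always enough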;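 note: 0% = vehicle buffer wells and 100% = reference agonist at full effect; tested in CHO reporter cells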
Target sequence (O43603 whole entry, looked up): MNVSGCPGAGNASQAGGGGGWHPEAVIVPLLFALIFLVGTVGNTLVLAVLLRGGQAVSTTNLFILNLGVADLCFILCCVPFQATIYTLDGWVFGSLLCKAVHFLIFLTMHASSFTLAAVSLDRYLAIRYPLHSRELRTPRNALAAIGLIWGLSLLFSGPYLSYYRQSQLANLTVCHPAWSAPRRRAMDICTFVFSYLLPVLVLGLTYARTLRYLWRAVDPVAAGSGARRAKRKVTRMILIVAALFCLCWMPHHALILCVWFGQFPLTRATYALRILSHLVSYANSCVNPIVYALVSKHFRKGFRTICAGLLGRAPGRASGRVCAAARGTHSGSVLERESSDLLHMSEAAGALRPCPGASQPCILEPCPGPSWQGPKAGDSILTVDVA
Insulin prom inh cell count = further read-out of Insulin prom inh, marked with its call; normalized cell count, %; measured here: cell count, toxicity; reference of the scale not given here;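 cells exposed to compound for 48 h; stained nuclei by imaging scaled within each plate; lower means fewer cells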
HSV replic up primary fold = second read-out of HSV replic up, no call of its own (marks repeat the call); fold increase; compound at 10 µM; measured here: primary screen fold increase 10 uM; tested in PC3 cells;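 GFP signal in the first replicate; 1 = infected wells without compound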
An asterisk follows results filed as active; i = inactive; · = not tested or not shown.

SMILES | HSV replic up | HSV replic up primary fold | Insulin prom inh | Insulin prom inh cell count | PKD1 inh | RGS16-Gao | GALR2 agonist
CCC1Sc2ccccc2N(CC(=O)NC2CCCC2)C1=O (stereo not drawn) | i | 0.87 | -312 | 92 | -9 | 107 | -2.4
Cc1ccc(-c2ccc(SCC(=O)Nc3ccc4c(c3)OCCO4)nn2)cc1 | i | 1 | · | · | -4 | 103 | -0.3
O=S(Cc1ccc(Cl)cc1)CC(O)COc1ccc(Cl)cc1 (stereo not drawn) | i | 1.2 | 45 | 84 | 3 | 99 | 0.3
O=S(=O)(c1cc(-c2nc3ccccc3s2)ccc1Cl)N1CCOCC1 | i | 0.86 | 33 | 168 | -9 | 107 | -2.6
COc1ccc(CC(=O)NNS(=O)(=O)c2ccccc2)cc1OC | i | 0.98 | -57 | 73 | -3 | 111 | ·
O=C(Nc1ccsn1)c1ccc(Cl)cc1Cl | i | 0.94 | · | · | · | 103 | ·
CCc1nnc(NC(=O)c2oc3cc(C)c(C)cc3c2C)s1 | i | 0.95 | 7 | 167 | -1 | 102 | -0.7
COC(=O)c1ccc(Sc2ccccn2)c([N+](=O)[O-])c1 | i | 1.1 | · | · | -12 | 99 | 0.3
O=C1c2ccccc2C(=O)N1CCN1CCc2ccccc21 | i | 0.84 | · | · | -2 | 100 | -0.8
CC(OCCN(C)C)C(=O)C12CC3CC(CC(C3)C1)C2 (stereo not drawn) | i | 0.89 | · | · | · | 96 | ·
CSc1nc(Oc2ccc(Cl)cc2)c2sccc2n1 | i | 0.95 | 0 | 125 | -9 | 96 | -2.1
CC(C)CN1C(=O)C(NC(=O)C2CC2)(C(F)(F)F)C2=C1CC(C)(C)CC2=O (stereo not drawn) | i | 1 | 37 | 75 | -4 | 108 | -0.7
CC1=C(C(=O)Nc2ccc(C)cc2C)C(c2cccc([N+](=O)[O-])c2)n2nc(C(=O)OC(C)C)nc2N1 (stereo not drawn) | i | 0.88 | 31 | 94 | -15 | 106 | -3.3
CS(=O)(=O)N1N=C(c2ccc(Br)cc2)CC1c1ccc2c(c1)OCO2 (stereo not drawn) | i | 1.1 | -35 | 98 | -12 | 107 | -0.8
Cc1ccccc1OCC(=O)NNC(=O)Nc1ccc(Cl)cc1 | i | 0.54 | -45 | 173 | 5 | 99 | -1.3
Clc1ccc(CO/N=C/c2cccs2)cc1 | i | 1 | · | · | · | 91 | ·
O=C(CCl)c1ccc2c(c1)CCN2C(=O)C1CC1 | i | 1 | · | · | -6 | 71 | ·
NCCN1CCN(CCN)CC1 | i | 0.92 | -25 | 80 | 6 | 109 | -1.1
C=CCn1c(-c2cc3c(s2)CCC(CC)C3)n[nH]c1=S (stereo not drawn) | i | 0.94 | -24 | 137 | -2 | 106 | ·
CCOC(=O)c1cc(CC)sc1NC(=O)c1ccc(N2C(=O)CCC2=O)cc1 | i | 0.81 | -29 | 85 | 11 | 149 | -2.6
CCOC(=O)N1CCN(C(=O)Cc2ccc(Cl)cc2)CC1 | i | 1.1 | -18 | 106 | -7 | 93 | -1.5
CCN(CC(=O)Nc1ccc(Cl)c(S(=O)(=O)N(C)C)c1)Cc1nc2ccccc2c(=O)[nH]1 | i | 0.86 | -8 | 84 | -4 | 107 | ·
Cc1cc(=O)oc2cc(OCC(=O)c3ccc4c(c3)NC(=O)CO4)ccc12 | i | 0.68 | 0 | 152 | 3 | 115 | ·
Cc1c(C(=O)Nc2ccccc2C(=O)N2CCOCC2)cccc1[N+](=O)[O-] | i | 0.86 | 30 | 115 | -8 | 100 | -1.1
CCCc1oc(C(=O)O)cc1CN1CCCC1 | i | 0.94 | · | · | -1 | 101 | -0.1

5 successive records already listed, for reference:
SMILES | HSV replic up | HSV replic up primary fold | Insulin prom inh | Insulin prom inh cell count | PKD1 inh | RGS16-Gao | GALR2 agonist
CCOC(=O)N1CCN(C(=O)Cc2ccc(Cl)cc2)CC1 | i | 1.1 | -18 | 106 | -7 | 93 | -1.5
CCN(CC(=O)Nc1ccc(Cl)c(S(=O)(=O)N(C)C)c1)Cc1nc2ccccc2c(=O)[nH]1 | i | 0.86 | -8 | 84 | -4 | 107 | ·
Cc1cc(=O)oc2cc(OCC(=O)c3ccc4c(c3)NC(=O)CO4)ccc12 | i | 0.68 | 0 | 152 | 3 | 115 | ·
Cc1c(C(=O)Nc2ccccc2C(=O)N2CCOCC2)cccc1[N+](=O)[O-] | i | 0.86 | 30 | 115 | -8 | 100 | -1.1
CCCc1oc(C(=O)O)cc1CN1CCCC1 | i | 0.94 | · | · | -1 | 101 | -0.1

Continuation.
SMILES | HSV replic up | HSV replic up primary fold | Insulin prom inh | Insulin prom inh cell count | PKD1 inh | RGS16-Gao | GALR2 agonist
O=C(O)CCC(=O)Nc1ccccc1C(=O)N1CCN(c2ccc(Cl)cc2)CC1 | i | 0.87 | · | · | -6 | 101 | ·
Cc1ccc(Nc2n[nH]c(C)c2[N+](=O)[O-])c(C)c1 | i | 0.93 | 0 | 143 | 11 | 112 | 0.4
O=C(c1cnn2ccccc12)N1CCCc2ccccc21 | i | 0.84 | · | · | -15 | 88 | -1.5
COC(=O)c1ccc(NC(=S)N2CCN(Cc3ccccc3)CC2)cc1 | i | 0.78 | · | · | -13 | 101 | -2.3
COc1cccc(-c2noc(-c3cccnc3)n2)c1 | i | 0.69 | · | · | 15 | 98 | -0.1
COc1cccc(-n2c(=O)n(Cc3ccccc3)c(=O)c3[nH]cnc32)c1C | i | 1.1 | · | · | · | 96 | ·
O=C(Nc1ccc(S(=O)(=O)Nc2ccccn2)cc1)C(F)(F)F | i | 1 | · | · | -1 | 97 | ·
O=C(NC1CC1)c1sc2cc([N+](=O)[O-])ccc2c1Cl | i | 0.89 | 45 | 86 | -1 | 98 | -0.8
CC(CC(C)C(=O)Nc1ccccc1C(C)(C)C)C(=O)O (stereo not drawn) | i | 0.84 | 25 | 138 | -11 | 95 | -1.0
Cc1ccc(-n2c(N)c(S(=O)(=O)c3ccccc3)c3nc4ccccc4nc32)cc1 | i | 1.1 | · | · | -5 | 98 | ·
Cc1ccc(CNC(=O)C2CC(=O)N(CCC(C)C)C2)cc1 (stereo not drawn) | i | 1.1 | 41 | 107 | -7 | 102 | ·
Cc1ccc2c(C)nc(Nc3nc(CSc4nnc(C)s4)cc(=O)[nH]3)nc2c1 | i | 0.64 | -76 | 138 | -8 | 99 | -1.9
CCCNC(=O)c1cc(-c2ccco2)on1 | i | 1.2 | -356 | 57 | 5 | 100 | -2.1
O=C(c1ccccc1)c1cccs1 | i | 1.1 | · | · | -2 | 103 | ·
O=c1oc2ccccc2c2c1ncn2C1CCCCC1 | i | 1.1 | 16 | 98 | -3 | 103 | -0.6
COC(=O)CCC(=O)Nc1ccc(NC(=O)CCC(=O)OC)cc1 | i | 0.96 | · | · | -6 | 95 | -1.3
Cc1n[nH]c(=S)n(/N=C/c2cccc([N+](=O)[O-])c2)c1=O | i | 1 | · | · | · | 110 | ·
O=C(CN1CCCCCC1)NN(Cc1ccccc1)c1ccccc1 | i | 0.74 | · | · | · | 106 | ·
Cc1nc2ncnn2c(C)c1C/C=C/c1ccccc1 | i | 0.94 | · | · | -1 | 107 | ·
Cc1ccc(C(=O)CSc2nnnn2Cc2ccccc2)cc1C | i | 0.96 | · | · | · | 95 | ·
N#CCSc1nnc(N)s1 | i | 0.93 | 0 | 111 | 5 | 95 | -3.3
Cc1cc(C)n(-c2ccc(C(=O)Nc3cccc(S(=O)(=O)N(C)C)c3)cc2)n1 | i | 0.89 | · | · | -15 | 98 | -1.6
COc1cc([C@H]2[C@@H]3CCCC[C@]3(O)CCN2CC(=O)Nc2ccc(C)cc2)ccc1O | i | 1 | · | · | 4 | 108 | -1.7
Cc1cc(C)cc(NC(=O)CN2CCCN(S(=O)(=O)c3ccc(Br)s3)CC2)c1 | i | 0.82 | -35 | 131 | -13 | 99 | -1.1
COC(=O)c1[nH]c2cc(OC)ccc2c1NC(=O)c1c(F)cccc1F | i | 0.71 | · | · | · | 97 | ·
(continued)
SMILES | HSV replic up | HSV replic up primary fold | Insulin prom inh | Insulin prom inh cell count | PKD1 inh | RGS16-Gao | GALR2 agonist
CCOC(=O)N1CCN(C(=O)COc2cccc3c2CCN(Cc2cccc(C)c2)C3=O)CC1 | · | · | · | · | 3 | 108 | -0.1
O=C(O)C1CC=CCC1C(=O)Nc1ccccc1C(=O)N1CCN(c2ccc(Cl)cc2)CC1 (stereo not drawn) | i | 0.97 | · | · | -4 | 111 | ·
Cc1ccccc1Oc1cc(NC(=O)Cn2cnc([N+](=O)[O-])c2)cc([N+](=O)[O-])c1 | i | 0.97 | -10 | 186 | 0 | 102 | ·
COc1ccc(S(=O)(=O)n2ccnc2)c2cccnc12 | i | 1 | 0 | 124 | -2 | 95 | -2.5
COc1cc(C(=O)NCc2cccc3ccccc23)cc(Cl)c1OC | i | 1 | · | · | -3 | 108 | -1.7
CN(Cc1ccc(F)cc1)C(=O)c1cccc(OC2CCN(C3CCCC3)CC2)c1 | i | 1.1 | · | · | 0 | 97 | ·
C=CCn1c(C)cc(C(=O)COC(=O)[C@@H](NC(=O)c2ccccc2Cl)C(C)C)c1C | · | · | · | · | -7 | 105 | -0.9
Nc1nc2ncc(C(=O)c3cc(F)ccc3O)cc2s1 | i | 1 | · | · | · | 97 | ·
COc1ccc(C(=O)NCC(=O)OCc2ccc(F)cc2)cc1 | i | 1 | · | · | 0 | 108 | ·
CC(C)(C)C1CCC(OCC(O)CN2CCN(c3ccccn3)CC2)CC1 (stereo not drawn) | i | 1 | 7 | 70 | 9 | 116 | ·
COc1ccc(N(C(=O)c2cnccn2)C(C(=O)NC2CCCCC2)c2ccc(Cl)cc2)cc1 (stereo not drawn) | i | 1 | -244 | 73 | 0 | · | -2.7
CC(C)OC(=O)CSc1nnc(COc2ccc([N+](=O)[O-])cc2)n1C | i | 0.96 | -83 | 97 | -5 | 67 | ·
O=C1c2cccnc2C(Nc2ccc(F)c(Cl)c2)N1Cc1cccs1 (stereo not drawn) | i | 0.99 | -29 | 59 | -3 | 96 | ·
CCCc1ccc(OC(=O)c2cccs2)cc1 | i | 0.98 | -33 | 132 | -3 | 103 | -2.5
COc1ccc(C)cc1S(=O)(=O)N(C)CC(=O)NC1CCCC1 | i | 0.87 | 0 | 149 | -3 | 104 | -1.9
FC(F)(F)Oc1ccc(NC(=S)NCCCN2CCOCC2)cc1 | i | 0.98 | -2 | 87 | -7 | 100 | ·
CCN(CCO)Cc1csc2ccc(C(C)(C)C)cc12 | i | 0.9 | -2 | 83 | 7 | 33 | -0.4
CCn1ccnc1CN(C)Cc1nc(-c2ccccc2)no1 | i | 1 | · | · | -6 | 165 | ·
C=CCOc1ccc2nc(NC(=O)OC)[nH]c2c1 | i | 0.64 | · | · | -2 | 100 | -0.2
COc1cc(N)ccc1C(=O)O | i | 1.3 | · | · | 2 | 96 | -1.4
COc1ccc(NC(=O)Nc2nnc(CC(=O)Nc3ccccc3)s2)cc1 | i | 1 | · | · | · | 100 | ·
O=C(COC(=O)c1ccc(Br)o1)NCc1cccs1 | i | 0.64 | -20 | 149 | -2 | 120 | -1.2
O=C(O)Cn1cc2c(n1)CCCCC2 | i | 0.95 | · | · | 2 | 92 | -2.1
O=C(c1ccccc1)N1N=C(c2ccccc2)CC1c1ccc2nccnc2c1 (stereo not drawn) | i | 0.88 | · | · | -16 | 116 | -0.9
CCOC(=O)CNC(=O)CSc1nnc(-c2cccc(C)c2)n1-c1ccc(OC)cc1 | i | 0.83 | · | · | -3 | 105 | -1.6
(further entries)
SMILES | HSV replic up | HSV replic up primary fold | Insulin prom inh | Insulin prom inh cell count | PKD1 inh | RGS16-Gao | GALR2 agonist
O=S(Cc1ccc(Br)cc1)Cc1nnc(SCc2c(Cl)cccc2Cl)n1-c1ccccc1 (stereo not drawn) | · | · | -23 | 129 | -1 | 45 | 1.4
O=C(NCCN1CCC(Cc2ccccc2)CC1)C1CCN(S(=O)(=O)N2CCC3(CC2)OCCO3)CC1 | i | 0.93 | 14 | 128 | 6 | 101 | ·
CCCCC(=O)NC(NC(=O)CCCC)c1ccc(OCC(C)C)c(OC)c1 | i | 0.92 | -7 | 114 | -1 | 114 | 0.6
Cc1ccc(N/C=C(\C#N)S(=O)(=O)c2ccccc2)cc1 | i | 0.85 | · | · | -5 | 100 | ·
CN=C1SC(CC(=O)Nc2sc(C)c(C)c2C(=O)OC)C(=O)N1C (stereo not drawn) | i | 0.84 | 7 | 69 | 32 | 101 | -2.7
C=CCn1c(SCC(=O)NC(=O)c2cccn2C)nc2ccccc2c1=O | i | 0.96 | 64 | 120 | 2 | 104 | ·
O=C(NCc1ccncc1)C1=NN(c2ccccc2)C(=O)CC1 | i | 0.96 | -40 | 158 | -5 | 107 | ·
CCS(=O)(=O)Nc1cc(-c2nc3cccnc3s2)ccc1C | i | 0.84 | · | · | 2 | 98 | -3.5
N#CCC(=O)Nc1ncc(Cc2ccccc2Cl)s1 | i | 0.95 | 0 | 105 | -1 | 104 | ·

Compound activity (PubChem BioAssay)
